From PubChem BioAssay
TRPML1 agonist = qHTS for Agonists of the Human Mucolipin Transient Receptor Potential 1 (TRPML1); Mucolipin-1 (Homo sapiens), Q9GZU1; TRPML1-expressing cells, Ca2+ dye fluorescence, FDSS; host cell line not named in the record; reference of the full effect not given here; activation, % (concentration not given with the values); 0.12% of 410,000 active; AID 624414, 2012; in the data active = activation above about 50%; inconclusive = about 30% to 50%; inactive = below about 30%; further: 0% is about no effect; the text of the record puts the active cut at 80%
Target sequence (Q9GZU1 whole entry, looked up): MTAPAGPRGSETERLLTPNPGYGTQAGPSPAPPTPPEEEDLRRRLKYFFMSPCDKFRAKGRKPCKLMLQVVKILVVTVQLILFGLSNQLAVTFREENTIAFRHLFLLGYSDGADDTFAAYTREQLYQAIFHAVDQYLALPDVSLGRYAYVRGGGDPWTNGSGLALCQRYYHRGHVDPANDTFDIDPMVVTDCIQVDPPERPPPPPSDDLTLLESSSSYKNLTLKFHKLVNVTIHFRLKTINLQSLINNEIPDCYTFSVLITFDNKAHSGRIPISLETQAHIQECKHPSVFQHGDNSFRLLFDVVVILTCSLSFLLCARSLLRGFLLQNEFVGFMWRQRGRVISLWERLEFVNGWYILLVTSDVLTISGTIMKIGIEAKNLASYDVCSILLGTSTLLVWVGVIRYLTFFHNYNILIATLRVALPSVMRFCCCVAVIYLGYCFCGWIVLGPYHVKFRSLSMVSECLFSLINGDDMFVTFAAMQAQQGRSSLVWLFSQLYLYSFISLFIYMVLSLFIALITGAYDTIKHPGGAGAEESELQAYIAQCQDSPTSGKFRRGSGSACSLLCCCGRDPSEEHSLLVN
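Calcium fluorescence on an FDSS kinetic reader gave the read-out. Tet-induced TRPML1-DL cells were plated overnight, dye-loaded (Ca8 with quencher, 45-90 min, room temperature, dark), then read 110 s after compound addition, and again 110 s after 4uM final 54-4 (EC80).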
D2 agonist = Beta-Arrestin HTS for Positive Allosteric Modulators of the Human D2 Dopamine Receptor: Agonists; activation, % (no concentration beside the values); 0.084% of 360,000 active; DiscoveRx PathHunter D2 beta-arrestin, luminescence, 90 min; 100% = 57 uM dopamine signal; D(2) dopamine receptor (Homo sapiens), P14416; in the data active = activation above about 40%; inconclusive = about 15% to 40%; inactive = below about 15%; further: compound concentration not given in the record; the text of the record calls up to 30% inactive
Target sequence (P14416 whole entry, looked up): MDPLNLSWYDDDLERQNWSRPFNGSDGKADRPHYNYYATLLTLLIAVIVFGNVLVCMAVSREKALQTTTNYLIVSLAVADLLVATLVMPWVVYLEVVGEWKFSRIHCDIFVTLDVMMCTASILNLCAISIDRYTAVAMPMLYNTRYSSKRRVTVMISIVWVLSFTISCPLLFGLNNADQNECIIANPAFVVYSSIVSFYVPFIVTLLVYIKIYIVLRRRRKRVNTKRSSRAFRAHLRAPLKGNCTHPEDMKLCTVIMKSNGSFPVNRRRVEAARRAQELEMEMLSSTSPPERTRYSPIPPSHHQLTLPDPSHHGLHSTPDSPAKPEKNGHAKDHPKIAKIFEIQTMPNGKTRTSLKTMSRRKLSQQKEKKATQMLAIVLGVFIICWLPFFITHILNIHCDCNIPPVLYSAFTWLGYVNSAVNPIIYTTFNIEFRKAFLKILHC
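DiscoveRx PathHunter D2 beta-arrestin cells (2,100/well) attached overnight, then compound-stimulated 90 min at 37 C in HBSS/10 mM HEPES/0.1% Tween-20 buffer; beta-galactosidase complementation read by luminescence after 1 h at ambient temperature. Dopamine 57 uM final (EC100) as control.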
D2 PAM = Beta-Arrestin HTS for Positive Allosteric Modulators of the Human D2 Dopamine Receptor: Potentiators. potentiation, % (concentration not given with the values). 0.23% of 360,000 active. DiscoveRx D2 beta-arrestin cells, luminescence, 90 min; 100% = 57 uM dopamine signal; active = potentiation of 50% or more; inconclusive = 30% to 50%; inactive = 30% or less;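 further: compound concentration not given in the record; tested on top of an EC20 dose of dopamine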
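PathHunter D2 cells, attached overnight at 37 deg C, received compound in DMSO plus dopamine at EC20 (50 nM final) for 90 min at 37 deg C. Beta-arrestin recruitment was read as luminescence after 1 h with detection reagent at ambient temperature.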
Six1-Eya2 blk = qHTS Assay for Inhibitors of the Six1/Eya2 Interaction. Homeobox protein SIX1 (Homo sapiens) + Protein phosphatase EYA2 (Homo sapiens), …. AlphaScreen GST-Six1/His-Eya2 binding, biochemical; stronger effect = lower value; control for the full effect not named in the record. activity change, % (no concentration beside the values). 0.56% of 360,000 active. AID 651725, 2012; in the data active = activity change below about -65%; inconclusive = about -30% to -65%; inactive = above about -30%; further: on the % scale 0 is the no-effect control and ±100 the full control effect; compound concentration not given in the record
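GST-Six1 + His-Eya2 (5X stock: 250/500 nM); Tris pH 8.0, 300 mM NaCl, 0.05% BSA, 0.02% Tween 20; GSH donor/Ni acceptor beads; 1 h 37 °C dark; AlphaScreen readout.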
CtBP-E1A inh = qHTS Assay for Inhibitors of the CtBP/E1A Interaction; CtBP / adenovirus E1A interaction (AlphaScreen); AlphaScreen GST-E1A/His-CtBP binding, 1536-well; stronger effect = lower value; control for the full effect not named in the record; activity change, % (test concentration not listed); 0.49% of 340,000 active; in the data active means activity change below about -65%; inconclusive means about -30% to -65%; inactive means above about -30%; further: on the % scale 0 is the no-effect control and ±100 the full control effect; compound concentration not given in the record
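GST-E1A and His-tagged CtBP (125 nM each as 5X stock) were preincubated with pin-transferred compound for 2 h at 37 °C in the dark, then glutathione donor and nickel acceptor beads were added for 1 h before AlphaScreen reading.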
PINK1 expr mod = A Quantitative High throughput Screen to Identify Chemical Modulators of PINK1 Expression | Potency, µM (doses to about 76.6 µM), for inactives: at the highest dose activation (PINK1 increase), actives largely listed as activators | 0.2% of 410,000 active | PINK1 immunofluorescence, high-content cytometry, 24 h | AID 624263, 2012; active = well fitted activation curve with a large enough effect; inconclusive = small, poorly fitted or top-dose-only effect; inactive = flat fitted curve, though single readings scatter; cell line not stated here;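 further: potency means the concentration at half of the fitted maximal effect; % of control where 0% means no effect; nearly all actives have a fitted effect of over 65% in size; a mitochondrial uncoupler was the plate control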
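PINK1 protein level read as immunofluorescence by microplate cytometer in a fixed, stained stable cell line after 24 h exposure to five compound concentrations, with CCCP as control.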
An asterisk follows results filed as active; u = inconclusive; x = no result given; [ ] = dose if it differs, or a comment. Rows were taken by chance; overall some 1.3% were active at least once.

SMILES	TRPML1 agonist	D2 agonist	D2 PAM	Six1-Eya2 blk	CtBP-E1A inh	PINK1 expr mod
CSCCC(NS(=O)(=O)c1ccc2c(c1)OCCO2)C(=O)N(C)Cc1ccc(C)cc1 (stereo not drawn)	-0.6	0.3	12	-11	-5	1.0%
CCN(CC)C(=O)Cn1cnc2ccccc2c1=O	0.4	-5.0	12	-1	3	0.3%
COc1ccc(NS(=O)(=O)c2ccc(O)c(C(=O)OCC(=O)N3CCCCC3)c2)cc1	0.3	0.3	0	4	8	-0.2%
Cc1cc(C(=O)NC(C)C2CCCO2)no1 (stereo not drawn)	-0.4	-4.0	4	4	-1	3.6%
O=C(CCN1C(=O)C2C3C=CC(C3)C2C1=O)Nc1c(F)cc(F)cc1Br (stereo not drawn)	-1.1	-2.0	3	0	20	-0.9%
CCN(CC)C(=O)c1ccccc1NC(=O)c1ccccc1	0.4	0.2	-2	3	-1	-1.5%
O=C(CSc1cccc[n+]1[O-])c1ccc(Cl)cc1	-0.2	-1.3	-8	1	-1	1.0%
COc1c(C)cccc1C(=O)Nc1cc(Cl)ccc1N1CCOCC1	0.1	0.5	6	-2	6	5.7%
Cc1ccc(NC(=S)NNC(=S)NC2CCCCC2)cc1	1.7	-2.1	-8	-6	-3	-1.0%
O=S(=O)(NCCCCNS(=O)(=O)c1ccc(F)cc1)c1ccc(F)cc1	0.4	0.1	-1	1	1	1.9%
Cc1ccc(CCNS(=O)(=O)c2ccc3c(c2)NC(=O)CCS3)cc1	0.9	-3.9	-9	4	x	2.6%
Cc1nn(C)cc1/C=N/NC(=O)C1(O)c2ccccc2-c2ccccc21	0.0	3.5	1	8	2	1.5%
CCCc1cc(=O)[nH]c(SCc2ccccc2)n1	5.5	1.5	-7	6	-9	0.7%
Oc1cccc(/C=N/N2CCN(C3c4ccccc4-c4ccccc43)CC2)c1	0.7	-1.2	-5	-23	-23	0.3%
COc1ccc(C(CC(=O)O)NC(=O)c2ccco2)cc1OC (stereo not drawn)	-0.9	-1.6	-7	0	6	-1.0%
COC(=O)CNC(=O)CNC(=O)c1nn(-c2ccc(OC)c(OC)c2)c(=O)c2ccccc12	0.6	-1.8	-3	8	x	0.0%
O=C(NCc1ccco1)c1nc(-c2ccccc2)n(-c2ccccc2)n1	2.4	-0.7	10	u	u	-2.1%
CCCc1cc(=O)oc2cc(OCC(=O)N3CCc4ccccc43)ccc12	-1.0	-1.6	-15	1	2	6.9%
Cc1cc(NC(=O)CSc2nc(C3CC3)nc3sc4c(c23)CCC(C)C4)no1 (stereo not drawn)	-0.1	0.0	-32	0	7	17%[38.3 µM]
CSc1nc2ncc3c(n2n1)CC(C)(C)CC3=O	-0.4	-5.4	2	2	7	3.3%
Cc1cc([N+](=O)[O-])nn1CC(=O)NCCc1c[nH]c2ccccc12	0.0	-3.6	-8	16	-20	-1.8%
Cc1cc(-c2csc(NC(=O)c3ccc(C#N)cc3)n2)c(C)n1Cc1ccccc1	0.3	-2.1	-13	2	-13	0.2%
COc1cc(/C=C/C(=O)c2ccc(C)cc2)ccc1OCC#N	3.6	1.6	-20	5	1	-5.7%
CC(=O)/C(=N/Nc1cccc(C)c1)N1CCOCC1	-1.0	-2.7	5	0	2	-0.7%
COc1cc(NC(=O)C2CCN(S(=O)(=O)c3cnc[nH]3)CC2)cc(OC)c1OC	0.2	1.0	1	-1	5	2.2%[38.3 µM]
CN(C)C(CNC(=O)c1cccs1)c1cccnc1 (stereo not drawn)	-0.2	4.0	-7	-1	-1	-1.4%
CCCCCCn1c(CN2CCN(C)CC2)nc2c1c(=O)n(C)c(=O)n2C	-0.5	-1.6	-11	-4	-6	2.8%
CNC(=S)N1CCC(NC(=O)C(Cc2ccc(F)cc2)NC(C)=O)CC1 (stereo not drawn)	0.3	-4.0	-14	0	-16	-0.3%
COc1ccccc1CN1CCC(n2nccc2NC(=O)CCCc2ccccc2)CC1	0.4	-1.4	-22	-5	-2	-0.1%
CCOC(=O)c1c(C)n(C)c2cc(-c3cccc(C(F)(F)F)c3)c(O)cc12	0.4	3.5	-5	6	x	1.4%
N#CC1=C(N)NC(=S)C(C(N)=O)C1c1ccc([N+](=O)[O-])cc1 (stereo not drawn)	-0.9	-4.0	-12	4	1	2.5%
CCOC(=O)C1=C(COC(=O)/C=C/c2ccc(SC)cc2)NC(=O)NC1C (stereo not drawn)	2.6	0.2	13	-1	u	12%
O=[N+]([O-])c1cccnc1N1CCCCC1	-0.8	-1.2	-7	-1	-4	-1.5%
O=C(CN(Cc1ccc(F)cc1)S(=O)(=O)c1ccc(S(=O)(=O)N2CCOCC2)cc1)Nc1ccccc1	-0.4	-0.8	-11	0	10	u
Cc1ccc(NC(=O)COC(=O)CN2C(=O)COc3ccccc32)cc1	0.2	-4.2	2	-2	2	0.9%
OCC1CCN(Cc2cn(Cc3ccccc3)nc2-c2cc3ccccc3o2)CC1	0.8	0.2	-14	-13	11	3.6%
NS(=O)(=O)c1ccc(CNC(=O)/C=C/c2c(F)cccc2Cl)cc1	0.2	-0.3	-14	2	x	-2.3%
CCN(CC(=O)NCc1cccs1)C(=O)c1cccc(S(=O)(=O)N(CC)c2ccccc2)c1	0.4	2.1	-7	11	x	-0.5%
COc1ccc(CCNC(=O)C(=O)NCC2CCCN2S(=O)(=O)c2ccccc2)cc1 (stereo not drawn)	3.3	u	12	-1	0	-0.4%
Cc1ccc2[nH]c(=O)c(CN(Cc3cccs3)Cc3nnnn3Cc3ccccc3)cc2c1	1.6	-0.4	-17	-12	9	-1.9%[38.3 µM]

Looked up by compound from above:
SMILES	TRPML1 agonist	D2 agonist	D2 PAM	Six1-Eya2 blk	CtBP-E1A inh	PINK1 expr mod
Cc1cc([N+](=O)[O-])nn1CC(=O)NCCc1c[nH]c2ccccc12	0.0	-3.6	-8	16	-20	-1.8%
O=[N+]([O-])c1cccnc1N1CCCCC1	-0.8	-1.2	-7	-1	-4	-1.5%
N#CC1=C(N)NC(=S)C(C(N)=O)C1c1ccc([N+](=O)[O-])cc1 (stereo not drawn)	-0.9	-4.0	-12	4	1	2.5%
COc1cc(/C=C/C(=O)c2ccc(C)cc2)ccc1OCC#N	3.6	1.6	-20	5	1	-5.7%
CCCCCCn1c(CN2CCN(C)CC2)nc2c1c(=O)n(C)c(=O)n2C	-0.5	-1.6	-11	-4	-6	2.8%
Cc1ccc2[nH]c(=O)c(CN(Cc3cccs3)Cc3nnnn3Cc3ccccc3)cc2c1	1.6	-0.4	-17	-12	9	-1.9%[38.3 µM]

Additional records
SMILES	TRPML1 agonist	D2 agonist	D2 PAM	Six1-Eya2 blk	CtBP-E1A inh	PINK1 expr mod
COc1ccc(OC)c2c1C(=O)c1ccccc1C2=O	11	2.8	16	u	u	0.6%
O=C(c1cc2ccccc2cc1O)N1CCN(c2ccccc2O)CC1	-0.1	1.5	-2	-3	-8	5.7%
O=C(NCCCN1CCCC1=O)c1cc(NS(=O)(=O)c2ccc(F)cc2)cc(NS(=O)(=O)c2ccc(F)cc2)c1	0.3	-1.2	-10	5	0	1.5%
CCO[C@@H]1OC(C(=O)NCc2nc3ccccc3[nH]2)=C[C@H](C)[C@H]1CCCO	0.1	-0.2	-16	10	x	7.6%
CC(C)CC(=O)NC(=S)Nc1cccc(NC(=O)c2ccccc2)c1	-0.4	-1.5	-4	-5	x	2.0%
Cc1cc(N/N=C/c2c[nH]c3ccccc23)c2ccccc2n1	1.3	-4.2	-3	15	1	1.2%
NC(=O)COC(=O)c1c2c(nc3ccccc13)CCCC2	0.3	-3.3	-1	-3	-2	1.7%
O=C(CCCCCN1C(=O)c2cccc([N+](=O)[O-])c2C1=O)NCCc1ccccc1	-0.7	1.5	-23	0	-8	-0.7%
COc1cc(/C=C/C(=O)OCc2csc(CC(=O)Nc3ccc(C)cc3)n2)ccc1OCC#N	1.2	-0.3	-2	-1	x	1.4%
COc1ccc2nc(N(Cc3ccccc3)C(=O)CCNC(C)=O)sc2c1	-0.2	4.3	-6	-2	6	5.1%
O=C(NCc1cccs1)c1ccc2sc(COCCO)nc2c1	0.6	-2.5	3	-9	5	4.8%
COc1cc2c(cc1OC)CN(C(=O)c1cc(S(=O)(=O)N3CCCCC3)ccc1Cl)CC2	1.5	-0.4	-6	-1	-12	3.7%
COc1ccc(CCNC(=O)COC(=O)/C=C/c2ccc(OCC#N)c(OC)c2)cc1	-0.7	-4.7	-17	4	-6	2.6%
Cn1nc(-c2ccccc2)cc1NC(=O)c1cccs1	1.1	-1.5	-6	-1	6	-0.5%
COc1ccc(N2CCN(c3nc4c(c(=O)[nH]c(=O)n4C)n3Cc3cccc(C)c3)CC2)cc1	-0.4	-13	-4	-5	5	-1.2%
CC(C)(C)Nc1nc(Cl)nc(NC(C)(C)C)n1	2.4	0.2	-6	0	-14	u
COc1cccc(N2CCN(S(=O)(=O)c3ccc4c(c3)N(C(C)=O)CCO4)CC2)c1	1.3	7.6	-13	-11	-18	-0.6%
CCCc1c(O)nc(SCCN(CCC)CCC)[nH]c1=O	0.2	-1.7	-7	5	-1	0.0%[38.3 µM]
CC1=NN(C(=O)c2cc(C)nn2C)C(O)(C(F)(F)F)C1 (stereo not drawn)	-0.5	-1.4	-30	-5	0	1.0%
Cc1cc(C(C)(C)C)nc2[nH]n(-c3ccccc3)c(=O)c12	0.0	-0.7	3	-2	-2	-0.5%
COc1ccc(C(C(=O)NCC2CCCO2)N(Cc2ccco2)C(=O)c2snc(C(N)=O)c2N)cc1OC (stereo not drawn)	4.0	2.3	8	7	6	-0.5%
O=C1CN(C(=O)CSc2nc3ccccc3c(=O)n2Cc2ccc(F)cc2)c2ccccc2N1	0.3	-1.1	-1	-3	-3	5.8%
CC(C)C(NC(=O)c1ccco1)C(=O)NCC(c1ccco1)N1CCCCC1 (stereo not drawn)	0.7	-2.0	1	2	5	-0.4%
CCN(C)C1CN(Cc2cn(CCCOC)nn2)S(=O)(=O)C1 (stereo not drawn)	0.1	x	x	7	11	-0.3%
CCN(CC)CCNC(=O)NC(=O)c1ccc(Cl)cc1	-0.2	-4.6	-8	36	0	0.6%
COc1ccc(NC(=S)Nc2ccc(OC(F)F)cc2)cn1	-1.0	-1.8	2	-2	-12	3.7%
Cc1ccc(S(=O)(=O)NCC(=O)N(CC2CCCO2)C(C(=O)NC2CCCCC2)C(C)C)cc1 (stereo not drawn)	0.1	-0.7	-4	9	7	0.2%
O=C(NNC(=O)c1ccccc1Br)c1ccncc1	-0.6	-5.7	-4	-1	10	1.4%
COc1cc(C2CC(=O)c3c([nH]c(C(=O)OCCOC(C)C)c3C)C2)cc(OC)c1OC (stereo not drawn)	1.7	9.8	1	-12	-6	3.1%
